gsp antagonist = qHTS for Antagonists of gsp, the Etiologic Mutation Responsible for Fibrous Dysplasia/McCune-Albright Syndrome: qHTS. gsp-mutant cells, cAMP HTRF, 30 min; control for the full effect not named in the record. Potency, µM (titrated, usually from 76.9 µM), for the others: at the top dose activity change, negative = inhibition, actives largely listed as inhibitors. hit rate 0.4% among 340,000. AID 624288, 2012; active = falling curve of any shape with a large fitted effect; inconclusive = falling curve, mostly with a smaller effect; inactive = flat or rising curve; cell line not stated here;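 further: intracellular cAMP measured with PDE inhibitor Ro 20-1724 present during compound exposure; potency means the concentration at half of the fitted maximal effect; on the % scale 0 is the no-effect control and ±100 the full control effect; nearly all actives have a fitted effect of over 65% in size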
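Cells, 2000/well, grown 16–24 h in DMEM 10% FBS with 0.5 mg/ml G418, then compounds plus […] (300 uM addition stock), 30 min at 37C. cAMP read by HTRF (cAMP-d2 and anti-cAMP antibody-K in lysis buffer) after 30 min RT.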
CtBP-E1A blk = qHTS Assay for Inhibitors of the CtBP/E1A Interaction | CtBP / adenovirus E1A interaction (AlphaScreen) | AlphaScreen GST-E1A/His-CtBP binding, 1536-well; active compounds read low; control for the full effect not named in the record | activity change, % (no concentration beside the values) | hit rate 0.49% among 340,000 | AID 651724, 2012; in the data active means activity change below about -65%; inconclusive means about -30% to -65%; inactive means above about -30%; further: on the % scale 0 is the no-effect control and ±100 the full control effect
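AlphaScreen with 125 nM GST-E1A and 125 nM His-CtBP (5X stocks) in Tris pH 8.0, 300 mM NaCl, BSA, Tween 20, TCEP. Compounds preincubated 2 h at 37 deg C, then glutathione donor/nickel acceptor beads added for 1 h at 37 deg C in dark.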
gsp ag = qHTS for Agonist of gsp, the Etiologic Mutation Responsible for Fibrous Dysplasia/McCune-Albright Syndrome: qHTS; gsp mutant cells, cAMP HTRF, 30 min; control for the full effect not named in the record; Potency, µM (titrated, usually from 76.9 µM), without a hit: top-dose activation (cAMP increase), usual class: activators; hit rate 0.13% among 340,000; AID 624287, 2012; active = well fitted activation curve with a large enough effect; inconclusive = small, poorly fitted or top-dose-only effect, or another doubt; inactive = no such curve, though single readings can be large or run the other way; cell line not stated here;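 further: phosphodiesterase inhibitor Ro 20-1724 added with compounds to block cAMP breakdown; potency means the concentration at half of the fitted maximal effect; nearly all actives have a fitted effect of over 60% in size; about a fifth of the inactives were tested at one dose only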
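Cells stably selected in G418 were plated at 2000/well, grown 16-24 hr, then given compounds in DMSO with the PDE inhibitor […] (300 uM solution added) for 30 min at 37C; cAMP was read by HTRF.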
TRPV1 potentiator = HTS Assay for Compounds that Act as Potentiators of the Vanilloid Receptor 1. Transient receptor potential cation channel subfamily V member 1 (Homo sapiens), Q8NER1. hit rate 0.02% among 320,000. TRPV1-expressing cells, Fluo-8 calcium influx, capsaicin EC20 potentiation; host cell line not named in the record; control for the full effect not named in the record. potentiation, % at 8.33 µM. AID 540277, 2011; active means potentiation above 80%; inconclusive means 30% to 80%; inactive means below 30%; further: 0% is about no effect
Target sequence (Q8NER1 whole entry, looked up): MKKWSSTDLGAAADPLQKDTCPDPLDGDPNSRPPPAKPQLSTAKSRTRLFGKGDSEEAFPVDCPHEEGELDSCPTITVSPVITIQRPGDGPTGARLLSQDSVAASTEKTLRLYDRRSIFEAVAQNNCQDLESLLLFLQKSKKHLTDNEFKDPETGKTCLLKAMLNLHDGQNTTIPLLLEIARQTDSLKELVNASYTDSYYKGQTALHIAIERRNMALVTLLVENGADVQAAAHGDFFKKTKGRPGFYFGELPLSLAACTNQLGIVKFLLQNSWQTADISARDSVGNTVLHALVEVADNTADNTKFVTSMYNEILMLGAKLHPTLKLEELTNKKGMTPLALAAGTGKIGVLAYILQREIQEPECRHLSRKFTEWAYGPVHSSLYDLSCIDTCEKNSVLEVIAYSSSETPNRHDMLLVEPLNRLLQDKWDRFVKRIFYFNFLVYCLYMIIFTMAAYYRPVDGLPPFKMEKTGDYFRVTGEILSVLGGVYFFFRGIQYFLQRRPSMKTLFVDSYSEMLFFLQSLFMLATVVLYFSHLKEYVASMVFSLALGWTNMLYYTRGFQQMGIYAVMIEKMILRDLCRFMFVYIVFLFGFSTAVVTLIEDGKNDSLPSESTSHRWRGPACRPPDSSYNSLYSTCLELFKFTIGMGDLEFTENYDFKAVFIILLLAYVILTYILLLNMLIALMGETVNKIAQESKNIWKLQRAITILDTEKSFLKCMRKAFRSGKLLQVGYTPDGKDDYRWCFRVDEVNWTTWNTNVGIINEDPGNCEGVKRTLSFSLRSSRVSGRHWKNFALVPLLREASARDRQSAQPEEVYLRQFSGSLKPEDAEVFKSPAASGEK
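TRPV1-expressing cells were cultured overnight at 35.5C and loaded with Fluo-8 calcium dye for 40 to 90 min at room temperature. After a 10 s baseline, compound was added and calcium influx was read kinetically for 3 min (ex 480/em 520 nm).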
ClpP mod = qHTS Assay for Activators of ClpP; ATP-dependent Clp protease proteolytic subunit (Bacillus subtilis (strain 168)), P80244; purified B. subtilis ClpP, FRET peptide cleavage, 20 min; Potency, µM (titrated, usually from 57.5 µM), without a hit: top-dose activity change, negative = active; hit rate 1.9% among 340,000; AID 651965, 2013; active = well fitted falling curve with a large enough effect; inconclusive = small, poorly fitted or top-dose-only effect; inactive = no such curve, though single readings can be large or run the other way; further: potency means the concentration at half of the fitted maximal effect; the source files actives as falling curves though it sought activators and does not explain the sign; nearly all actives have a fitted effect of over 65% in size; many hits overshoot -100%
Target sequence (P80244 whole entry, looked up): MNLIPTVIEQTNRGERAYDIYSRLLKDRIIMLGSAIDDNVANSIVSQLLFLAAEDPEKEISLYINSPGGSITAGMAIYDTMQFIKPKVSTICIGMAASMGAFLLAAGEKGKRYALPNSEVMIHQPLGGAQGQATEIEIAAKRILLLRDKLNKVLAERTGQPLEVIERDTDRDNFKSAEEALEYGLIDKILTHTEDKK
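ClpP 10 microg/mL final, pH 8 Tris/KCl buffer with BSA, glycerol, Tween-20; compound pinned in; FRET-FV substrate; RT 20 min; Ex320/Em430; ΔFRET vs ADEP 5.8 microM, DMSO, no enzyme.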
Menin MLL FP FL = qHTS Assay for Inhibitors Targeting the Menin-MLL Interaction in MLL Related Leukemias: Competition With Fluorescein Labeled MLL-derived Peptide; Fluorescence polarization, fluorescein-MLL peptide displacement from menin; FP activity change, % at 61.4 µM; 290,000 tested, under 10 active; AID 1766, 2009; inconclusive = falling polarisation curve, or a change in total fluorescence; inactive = total fluorescence flat and polarisation flat or rising; no compound was filed as active; the % refers to the polarisation; negative = inhibition;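 further: % of control where 0% means no effect; inhibitors lower the polarisation; unlabelled MLL peptide was the positive control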
Sfp PPTase inh = qHTS Assay for Inhibitors of Bacillus subtilis Sfp phosphopantetheinyl transferase (PPTase); hit rate 3.5% among 310,000; Potency, µM, for the others: max response, negative = inhibition, actives largely listed as inhibitors; AID 1490, 2009; Biochemical Sfp PPTase activity, qHTS; active means well fitted inhibition curve with a large enough effect; inconclusive means small, poorly fitted or top-dose-only effect, or another doubt; inactive means no such curve, though single readings can be large or run the other way;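 further: the enzyme is Sfp with the accession as filed and its product quenches rhodamine fluorescence; potency means the concentration at half of the fitted maximal effect; 0% = enzyme reaction without inhibitor and -100% = no enzyme wells; top concentration of the series not given in the record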
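Fluorescence-quenching assay: 15 nM Sfp-PPTase preincubated 15 min at room temperature with compound, then 5 uM rhodamine-CoA and 12.5 uM BHQ-2-labelled YbbR peptide added. Fluorescence (ex 525/em 598 nm) read at start and after 30 min; difference gives rate.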
* marks the source's active call; other numbers are inactive results; u = inconclusive; x = not tested or not shown; & = joins results of further samples; [ ] = remark or other dose. Compounds were not picked by outcome; overall some 5.3% were active at least once.

SMILES	gsp antagonist	CtBP-E1A blk	gsp ag	TRPV1 potentiator	ClpP mod	Menin MLL FP FL	Sfp PPTase inh
CCc1c(C)nc2ncnn2c1Nc1ccc(C(C)=O)cc1	5.3%	-3.8	1.1%	-0.4	-1.9%	-2.4	19.2%
CCOC1CCc2c(C)nc(N)nc2S1 (stereo not given)	1.4%	x	u	8.1	u	-5.4	13.6%
NC(=O)c1ccccc1NS(=O)(=O)Cc1ccc(Cl)cc1	1.6%	11.1	-33.1%[inhibitor]	-9.6	22.4µM*	-0.5	9.6%
O=C(CCNC(=O)c1ccccc1Cl)Nc1cc(S(=O)(=O)N2CCOCC2)ccc1N1CCOCC1	-7.3%	2.4	14.2%	-9.2	-1.5%	2.0	11.6%
Cc1ccc(Nc2ncnc3c2nnn3Cc2ccccc2)cc1	-4.9%	4.9	0.0%[15.4 µM]	-12.1	-0.6%	1.5	6.3%
CC(=O)NN1C(=O)c2ccccc2NC1c1ccccc1O (stereo not given)	8.1%	-7.6	-6.4%[15.4 µM]	7.5	x	-3.4	3.8%
CCCC(=O)C1CCN(Cc2ccccc2)CC1	9.7%	-7.6	11.5%	21.0	-4.7%	0.5	3.0%
CC(C)C(CCN1C(=O)CCC1=O)C1CCOC(C)(C)C1 (stereo not given)	-3.7%	-3.0	28.7%	-8.7	-0.6%	3.6	21.0%
Cc1cc(C(=O)NC2CC2)c2ccccc2n1	4.2%	-3.0	-8.0%[15.4 µM]	-14.9	x	-5.0	0.3%
CCn1c(=O)n(CC)c2cc(S(=O)(=O)N3CCCCC3)c(C)cc21	-2.6%	0.7	u	-19.0	0.8%	0.4	-3.9%
COc1ccccc1Nc1nn2c(=O)c3ccc(C(=O)N4CCC(C)CC4)cc3nc2s1	u	-20.1	9.3%	3.7	-3.4%&-4.9%	0.5	-1.5%
CCOCCOC(=O)C1=C(C)N(C)C(=O)NC1c1cc(Cl)c(O)c(OC)c1 (stereo not given)	-3.1%	-12.4	-2.5%	-1.2	-4.0%	0.3	7.8%
CN(C)CCN(C(=O)c1ccc2c(c1)CCCC2)c1nc2cc3c(cc2s1)OCCO3	2.2%	-14.0	-10.0%	6.3	1.0%	x	-0.2%
CCOC(=O)c1ccc(NC(=O)CSc2nnc(-c3cccs3)n2CC)cc1	8.9%	2.1	24.8%	-14.0	126.6%	4.1	4.6%
O=C(COc1ccc(Cl)cc1)Nc1ccc2[nH]ncc2c1	2.9%	13.4	20.8%[15.4 µM]	-7.9	0.9%	4.6	10.5%
COc1ccc(/C=C2\SC(=S)N(C(Cc3ccccc3)C(=O)O)C2=O)cc1 (stereo not given)	u	-4.5	3.6%[15.4 µM]	-3.7	x	0.0	-42.1%
O=C(CSc1nc2cc(Cl)ccc2o1)N1CCOCC1	4.7%	-1.4	-5.6%	-22.9	-2.7%	4.7	10.8%
Cc1cccc(NC(=S)N(CCCN2CCCC2)Cc2cccn2Cc2ccc(Cl)cc2)c1	13.0%	-13.6	-0.2%[15.4 µM]	-1.4	x	-3.5	-7.4%
N#C/C(=C\c1c(N2CCN(c3ccccc3)CC2)nc2ccccn2c1=O)C(N)=O	-11.6%	-29.7	u	9.9	4.0%	-2.4	8.9%
CN1C[C@@H]2C[C@@H](C3=Cc4cc(Cl)ccc4OC3)N3CCC[C@@]23C1=O	-7.8%	0.0	-2.3%[15.4 µM]	-11.1	x	-0.5	-10.7%
N=C(N)Sc1nc(N2CCCCC2)nc(N2CCCCC2)n1	3.3%	-1.0	3.3%	5.2	-2.1%	-0.2	-19.9%
CC1(C)CC(=O)C/C(=N\NC(=O)C2CC2c2ccccc2)C1 (stereo not given)	7.1%	x	-2.7%	13.4	0.3%	-1.2	2.8%
Cc1nc2ccccc2nc1OCc1ccccc1	2.6%	19.5	-3.8%	-7.9	-8.3%	2.1	-5.8%
Cc1ccc(CN2CCN(Cc3cc4ccccc4o3)CC2CCO)cc1 (stereo not given)	6.4%	x	-31.3%	-1.2	1.0%	0.7	4.9%
COc1ccc(NC(=S)N/C(=N/CS(=O)(=O)c2ccccc2)c2ccccc2)cc1	7.0%	2.6	-47.1%[inhibitor]	-2.5	-1.7%	0.6	-5.3%

Shown as comma-separated lines: two of the compounds above.
smiles,gsp antagonist,CtBP-E1A blk,gsp ag,TRPV1 potentiator,ClpP mod,Menin MLL FP FL,Sfp PPTase inh
CC1(C)CC(=O)C/C(=N\NC(=O)C2CC2c2ccccc2)C1 (stereo not given),7.1%,x,-2.7%,13.4,0.3%,-1.2,2.8%
CCc1c(C)nc2ncnn2c1Nc1ccc(C(C)=O)cc1,5.3%,-3.8,1.1%,-0.4,-1.9%,-2.4,19.2%

Further records.
SMILES	gsp antagonist	CtBP-E1A blk	gsp ag	TRPV1 potentiator	ClpP mod	Menin MLL FP FL	Sfp PPTase inh
Clc1cccc(-c2noc3ncnc(Nc4ccc5c(c4)OCO5)c23)c1	-21.2%	0.9	-2.1%	-5.6	-0.7%	1.5	0.2%
CC1(C)CC(=O)c2cc(C(=O)NCc3ccco3)c(=O)n(-c3ccccc3)c2C1	-10.6%	2.5	-7.8%	12.1	28.2µM*	-0.4	u
CC(=O)NCC(=O)OC(C(=O)c1ccccc1)c1ccc(Cl)cc1 (stereo not given)	-0.9%	9.0	-1.5%	-3.2	-0.4%	-1.6	9.9%
COc1cccc2cc(C(=O)NCc3ccc(Cl)cc3)c(=O)oc12	2.3%	-24.9	-0.1%	10.7	x	-2.0	6.4%
O=C1OCC2=C1C(c1ccc(Cl)cc1)CC(=O)N2c1ccc(F)cc1 (stereo not given)	11.9%	4.3	-1.0%[15.4 µM]	-9.6	-0.7%	3.7	16.1%
Cc1cccc(C)c1NC(=O)NCCSc1snnc1C	7.3%	6.6	-0.9%	-6.2	x	-1.4	7.8%
COc1ccc(CN(C)C(=O)c2ccc(OCC(=O)Nc3cccc(C(F)(F)F)c3)c(OC)c2)c(OC)c1	-11.9%	5.8	11.2%[15.4 µM]	-4.1	-6.2%	x	x
O=c1oc2c3c4c(cc2c(C(F)(F)F)c1CCN1CCOCC1)CCCN4CCC3	3.7%	-2.9	23.6%	u	-3.4%	u	12.0%
CCSc1nnc(NC(NC(=O)c2ccco2)(C(F)(F)F)C(F)(F)F)s1	-7.5%	2.3	1.4%	0.9	-1.8%	-1.8	14.4%
Cc1cc(C)c(S(=O)(=O)NCC(=O)NCc2ccco2)c(C)c1	3.1%	2.0	12.2%[15.4 µM]	12.6	x	5.2	13.9%
N#CCC(=O)N/N=C/c1cn(Cc2ccc(Cl)c(Cl)c2)c2ccccc12	0.4%	2.1	11.8%[15.4 µM]	x	x	4.4	-28.7%
CCOC(=O)c1cnc(SCC(=O)NCc2cccs2)nc1N	-2.2%	8.1	-4.9%	-1.3	-0.3%	4.0	17.3%
CCC(C(=O)NCc1ccco1)N(Cc1cccs1)C(=O)CNS(=O)(=O)c1ccccc1 (stereo not given)	-13.3%	1.4	0.4%	4.8	0.1%	4.6	11.1%
Cc1cc(C)n(-c2ccc(NC(=O)C3CCN(Cc4cnc(C)s4)CC3)cc2)n1	-2.0%	8.4	-21.2%[15.4 µM]	4.0	0.4%	0.0	4.5%
Cc1ccc(S(=O)(=O)c2c(C)nn(C(C)(C)C)c2OC(=O)c2ccc(Br)o2)cc1	8.1%	-0.5	-16.1%	-6.7	1.0%	-1.9	-1.2%
C=C1C[C@H]2[C@@H]3CCc4cc(OC)ccc4[C@H]3CC[C@]12C	5.3%	x	15.7%	u	2.8%	x	x
CCCNC(=O)NC(=O)CSc1cccc(C(F)(F)F)c1	5.3%	x	-8.4%	-13.0	0.8%	-4.0	-0.9%
CN(CC(=O)NCCc1ccc(S(N)(=O)=O)cc1)S(=O)(=O)c1cccc2nsnc12	6.6%	-9.7	29.4%	7.1	-1.8%	-3.6	6.8%
COc1ccc(OC)c(S(=O)(=O)Nc2ccc(O)c(Sc3ncn[nH]3)c2)c1	0.4%	-6.4	18.6%	6.7	-0.7%	3.6	35.5µM*
Cc1ccc(NC(=O)Nc2cccs2)cc1	-29.4%	11.8	1.7%	-14.5	0.6%	15.1	17.8µM*
O=C1NC[C@H](Cc2ccccc2)N(C[C@H]2CCCN2C[C@H](Cc2ccccc2)N2C[C@H](Cc3ccccc3)N(CC3CCCCCC3)C(=O)C2=O)C1=O	u	-0.9	x	x	-2.0%	x	x
O=C(CNS(=O)(=O)c1c(Cl)cccc1Cl)N1CCCCCC1	-6.1%	x	u	22.2	-2.7%	-0.2	10.9%
CCCN1C(=O)C(O)(C/C(C)=N/O)c2ccccc21 (stereo not given)	10.2%	3.1	12.1%	1.7	0.6%	2.2	7.2%
CCOC(=O)C(C)c1c(C(=O)c2ccc(C)nc2)c2ccccc2n1C (stereo not given)	x	x	x	-3.2	x	1.5	12.5%
Cc1nc(-c2cccnc2)sc1C(=O)Nc1ccc(Cl)cc1	-1.5%	-17.8	0.1%	-7.8	-2.7%	7.9	12.7%
Cc1ccc(NC(=O)C(C)OC(=O)Cc2c[nH]c3ccccc23)cc1 (stereo not given)	-1.0%	3.3	0.6%[15.4 µM]	-15.0	x	x	x
O=C(NCc1cc([N+](=O)[O-])ccc1O)c1cccnc1Sc1ccccc1Cl	u	-17.6	-1.4%	3.5	-2.0%	x	-0.6%
NS(=O)(=O)c1ccc(CCNS(=O)(=O)c2cccs2)cc1	15.7%	0.8	-5.0%	6.3	-5.2%	x	9.7%
COCCN(CC(=O)NCC1CCCO1)C(=O)CCC(=O)Nc1cc(C)on1 (stereo not given)	3.2%	-2.6	-29.8%	-0.4	-24.0%	0.4	17.5%

Bioassay records as filed in PubChem.
